# Screening data: PubChem, SRMLSC
# H5N1 CPE: MDCK cell protection from H5N1 avian flu. cytopathic effect, luminescence, 72 h; stronger effect = higher value; no value below 0 was filed and about half of the inactive calls have no number; reference of the scale not given here. inhibition, % at 50 µM. hit rate 0.07% among 96,000; in the data active means inhibition above about 25%
# An asterisk follows results filed as active; i = inactive. These rows are one share of the data; the hit share may differ from the screen's.
SMILES,H5N1 CPE
CCc1nnc(NC(=O)CSc2ncnc3scc(-c4ccc(C)cc4)c23)s1,i
COc1ccccc1NC(=O)Cn1nc(-c2ccc(Cl)cc2)c2ccccc2c1=O,0.7
COc1ccc(/C(O)=C2/C(=O)C(=O)N(CC3CCCO3)C2c2cccc(OC)c2)cc1 (configuration not stated),i
O=C(Oc1cccc(Nc2ncnc3ccccc23)c1)c1ccccc1Cl,9.4
CCc1nnc(NC(=O)c2ccc(S(=O)(=O)N3CCN(Cc4ccccc4)CC3)cc2)s1,i
Cc1cc(Nc2ccccc2)nc(-c2ccccc2O)n1,i
CCOC(=O)c1sc2nc(N3CCCC3)c3c(c2c1N)CC(C)(C)OC3,i
CCOC(=O)N1CCN(C(=O)c2ccc(S(=O)(=O)c3ccc(C)cc3)c(NC(C)=O)c2)CC1,1.0
O=C(Nc1ccc2c(c1)nc1n2CCN(C2CCCCC2)C1)NC1CCCCC1,i
COc1cc(S(=O)(=O)NCCN2CCOCC2)c(OC)cc1Cl,0.6
Cc1noc(C)c1CSc1nc2[nH]ncc2c(=O)n1-c1ccccc1,9.0
O=S(=O)(/N=C(/Nc1cccc2ccccc12)c1ccccc1)c1cccs1,i
Cc1ccc(S(=O)(=O)NC(CC(=O)NCC2CCCO2)c2ccco2)cc1 (configuration not stated),i
CCOC(=O)C1CCCN(CC(=O)Nc2c(C(=O)OC)[nH]c3ccc(C)cc23)C1 (configuration not stated),i
COC(=O)C(Cc1ccc(OC(=O)c2ccc(C(F)(F)F)cc2)cc1)N1Cc2ccccc2C1=O (configuration not stated),0.2
O=C(NCCC1=CCCCC1)C1CCCN(S(=O)(=O)c2cnc[nH]2)C1 (configuration not stated),0.2
CCC(C)Oc1ccccc1C1CC(=O)NC2=C1C(=O)CCC2 (configuration not stated),0.3
O=c1cc(-c2ccccc2)nc2nc[nH]n12,i
CCN1CCCC1CNC(=O)Cn1cccc1C(=O)c1ccccc1 (configuration not stated),i
O=C(CCCCCN1C(=O)c2ccccc2C1=O)NCc1ccco1,i
Cc1cc(Cl)cc2c1NC(=O)[C@]21[C@@H]2C(=O)N(Cc3ccccc3)C(=O)[C@@H]2[C@@H]2CCCN21,0.1
COc1ccc(N(CC(=O)N2CC=C(c3ccccc3)CC2)S(=O)(=O)c2c(C)noc2C)cc1,1.5
COc1ccc(C(=O)c2c(C(F)(F)F)oc3c2C(=O)c2ccccc2C3=O)cc1,i
Cn1c(=O)n(CC(=O)N2CCC3(CC2)OCCO3)c(=O)c2ccccc21,0.2
Cc1cccc(-c2c3c(=O)n(C)c(=O)n(C)c3c3cccnn23)c1,i
CCS(=O)(=O)N1CCN(CC2CC3C=CC2C3)CC1 (configuration not stated),0.8
CC(/C=N/NC(=O)Cc1cc(=O)[nH][nH]1)=C\c1ccccc1,i
Cc1ccc(SCC2(O)CCN(C(=O)c3ccc(Cl)cc3)CC2)cc1,1.4
O=c1[nH]c(=O)n(CCOc2ccc(Cl)cc2)cc1Br,0.2
COc1cc(-c2noc(CCCC(=O)NCc3ccccc3)n2)cc(OC)c1OC,i
CCc1cc2c(NC(C(=O)O)C(C)C)ncnc2s1 (configuration not stated),i
COc1cc2c(cc1NC(=O)/C=C/c1ccccc1)oc1ccccc12,i
COC(=O)CNC(c1ccccc1)c1cc(C)ccc1NC(=O)CNC(=O)OCc1ccccc1 (configuration not stated),0.6
Cc1ccc(SCC(=O)Nc2ccc(N3CCN(C)CC3)c(F)c2)cc1,i
O=C(O)c1ccc(NC(=S)NC(NC(=O)c2ccco2)C(Cl)(Cl)Cl)cc1 (configuration not stated),i
O=C(NCc1cccnc1)c1ccc2c(c1)OCO2,0.9
COc1ccc(N2CC(C(=O)NCCCN3CCOCC3)CC2=O)cc1 (configuration not stated),0.5
CCc1ccccc1NS(=O)(=O)c1ccc2[nH]cc(C(=O)NCC3CCCO3)c(=O)c2c1 (configuration not stated),i
O=[N+]([O-])c1ccc(S(=O)(=O)Nc2ccc(-c3csc(-c4ccccc4)n3)cc2)cc1,i
CCOC(=O)c1[nH]c2cc(OC)c(OC)cc2c1NC(=O)CN1CCN(c2ccc(OC)cc2)C(C)C1 (configuration not stated),i
CCOC(=O)c1sc2nc(SCC#N)n(CC3CCCO3)c(=O)c2c1C (configuration not stated),1.8
CCN(CC)c1ccc(/C=N/N2CCN(Cc3ccc(C)cc3)CC2)c(O)c1,1.0
O=C(NCCN1CCOCC1)c1cc(-c2cccs2)on1,1.3
O=C(Nc1cccc(-c2nnc(-c3ccco3)o2)c1)C(c1ccccc1)c1ccccc1,0.3
O=C1/C(=C\c2cccnc2)SC(=S)N1C1CCS(=O)(=O)C1 (configuration not stated),8.8
N#Cc1nc(Cc2cccc3ccccc23)oc1NCCN1CCOCC1,0.4
C=CCn1c(SCC(=O)/C(C#N)=C(\C)N)nc2sc(C)c(C)c2c1=O,8.6
COc1ccc(NC(=O)CCC(=O)Nc2nnc(C(F)(F)F)s2)c(OC)c1,0.2
Cc1ccc(-c2nc3sc4c(c3c(=O)n2N)CCCC4)cc1,i
CCN(CCC(=O)Nc1cc(OC)cc(OC)c1)Cc1ccccc1,i
Cn1c(COc2ccc3ccccc3c2)nnc1SCC(=O)O,0.5
CCn1cc([N+](=O)[O-])c(C(=O)Nc2ccc(Cn3nc(C)cc3C)cc2)n1,i
CC(=O)N1CC=C2C(C#N)=C(N)C(C#N)(C#N)[C@H](c3ccoc3)[C@H]2C1,3.6
N/C(Cc1cccs1)=N\OC(=O)COc1ccc(Br)cc1Cl,0.6
Cc1cc(NC(=O)C2CCCC2)n(-c2nc3ccccc3[nH]2)n1,i
O=C(CCS(=O)CCC(=O)NCc1ccccc1)NCc1ccccc1,i
Cc1cc(C)n(C(=O)c2cccc(S(=O)(=O)N3CCCC3)c2)n1,i
CCCc1cc(=O)[nH]c(SCC(=O)N2CCC(C(=O)OCC)CC2)n1,1.0
CC(C)c1ccc(OCC(O)Cn2cnc3ccccc32)cc1 (configuration not stated),1.0
COC(=O)C1C(=O)/C(=C(/C)N2CCCC2)C(=O)CC1(C)C (configuration not stated),i

# Later entries:
SMILES,H5N1 CPE
COc1ccc(Nc2nc3ccccc3n3nnnc23)cc1,i
O=C(CSc1nnc(-c2ccco2)n1Cc1ccccc1)NC(=O)NCc1ccccc1,i
CC(C)NC(=O)c1onc(CSc2cccc(Cl)c2)c1C(=O)O,0.2
O=C(c1ccc(Cl)s1)N1CCCC1,i
COc1ccc(Nc2nnc(SCC(=O)Nc3cc(C)on3)s2)cc1,i
Nc1nc(CN2CCN(Cc3ccccc3)CC2)nc(Nc2ccc3c(c2)OCCO3)n1,i
COCCn1c(C)cc(C(=O)COC(=O)c2c(C)nn(Cc3ccccc3)c2C)c1C,i
O=C1CC(c2ccccc2)n2nc(NC(=O)c3cccs3)nc2N1 (configuration not stated),3.4
COc1ccc(N2C(=O)C(Cl)=C(Nc3ccccc3O)C2=O)cc1,0.5
CCCn1c(=O)c(C(=O)Nc2ccccc2C(=O)OC)c(O)c2ccccc21,i
O=C(O)CCN1C(=O)c2ccc(Oc3ccc4c(c3)C(=O)N(CCC(=O)O)C4=O)cc2C1=O,i
Cc1cccc(NC(=O)COc2ccccc2C)n1,i
COc1ccc(CCNc2oc(COc3ccc(Br)cc3)nc2C#N)cc1OC,i
Cc1ccc(N2CC(C(=O)Nc3ccc4c(c3)OCCO4)CC2=O)cc1 (configuration not stated),i
COc1ccc(CC(=O)N2CC3(C)CC2CC(C)(C)C3)cc1OC (configuration not stated),2.4
Cc1nc2c(C(=O)N3CCOCC3)cnn2c(C)c1Cc1cccc(Cl)c1,0.9
O=C(Nc1ccc(Cl)cc1)N1CCc2[nH]c3ccccc3c2C1,i
Cc1ccc(Cn2ccc(=O)c(Cc3c(Cl)cccc3Cl)c2C)cc1,2.0
c1ccc(CN(Cc2cccs2)C(c2cccs2)c2nnnn2C2CCCC2)cc1 (configuration not stated),0.2
Cc1cc(C)c(C#N)c(SCC(=O)Nc2nnc(-c3ccccc3)s2)n1,i
O=C(c1cnccn1)N(Cc1ccco1)C1(C(=O)NC2CCCC2)CCCCC1,i
O=C(C1CCC(=O)N1Cc1ccccc1Cl)N1CCN(c2ccc(F)cc2)CC1 (configuration not stated),0.2
C[N+](C)(C)CCN(Cc1ccc(Cl)cc1)c1ccccn1,i
Cc1ccc(C)c(NS(=O)(=O)c2cc(C(=O)Nc3cccc(N(C)S(C)(=O)=O)c3)ccc2C)c1,i
c1ccc(Nc2nc(N3CCCC3)nc(N3CCCC3)n2)cc1,0.4
CCC(=O)n1nc(-c2ccccc2)nc1N,2.2
O=C(Nc1ccc(F)cc1F)c1cccnc1Oc1cccc(C(F)(F)F)c1,i
COc1ccc(C(=O)/C=C(\N)C(F)(F)F)c(O)c1,i
CCOC(=O)CNC1CC(=O)N(c2cccc(Cl)c2)C1=O (configuration not stated),i
Cc1ccc(S(=O)(=O)NCC(=O)N2CCN(c3ccccn3)CC2)cc1,1.7

# Entries shown so far with a CF3 group, in the order listed:
SMILES,H5N1 CPE
COC(=O)C(Cc1ccc(OC(=O)c2ccc(C(F)(F)F)cc2)cc1)N1Cc2ccccc2C1=O (configuration not stated),0.2
COc1ccc(C(=O)c2c(C(F)(F)F)oc3c2C(=O)c2ccccc2C3=O)cc1,i
COc1ccc(NC(=O)CCC(=O)Nc2nnc(C(F)(F)F)s2)c(OC)c1,0.2
O=C(Nc1ccc(F)cc1F)c1cccnc1Oc1cccc(C(F)(F)F)c1,i
COc1ccc(C(=O)/C=C(\N)C(F)(F)F)c(O)c1,i

# Reprinted at random: six entries already listed.
SMILES,H5N1 CPE
O=C(Nc1ccc(Cl)cc1)N1CCc2[nH]c3ccccc3c2C1,i
C[N+](C)(C)CCN(Cc1ccc(Cl)cc1)c1ccccn1,i
Cc1ccc(S(=O)(=O)NCC(=O)N2CCN(c3ccccn3)CC2)cc1,1.7
Cc1ccc(C)c(NS(=O)(=O)c2cc(C(=O)Nc3cccc(N(C)S(C)(=O)=O)c3)ccc2C)c1,i
CCC(=O)n1nc(-c2ccccc2)nc1N,2.2
c1ccc(Nc2nc(N3CCCC3)nc(N3CCCC3)n2)cc1,0.4

# New compounds follow.
SMILES,H5N1 CPE
Cc1csc(NC(=O)C(NS(=O)(=O)c2ccc(Br)s2)c2ccccc2)n1 (configuration not stated),1.9
Cc1cccc(NC(=O)Nc2ccc(Oc3c(F)c(F)c(F)c(F)c3F)cc2)c1,i
COc1ccc(NC(=O)CCSc2cc(C)c3ccccc3n2)cc1,i
CC(C)N1CCN(c2ccncc2S(=O)(=O)N2CCOCC2)CC1,1.6
Cc1c(C(=O)N2CCN(c3ncccn3)CC2)sc2nc3n(c(=O)c12)CCCC3,0.5
Cc1cc(Cl)ccc1OCCCC(=O)N1CCN(C)CC1,i
COc1ccc(C)cc1S(=O)(=O)N1CCCC(C(=O)NCC2CCCO2)C1 (configuration not stated),0.2
Cc1cccc(C(=O)O/N=C2\CCCc3ccccc32)c1,0.3
Cc1ccccc1NC(=O)c1ccc(-n2cncn2)nc1,i
c1ccc(Cn2c(Sc3nnnn3-c3ccccc3)nnc2-c2ccccc2)cc1,i
C=CCC(C#Cc1ccc(C)cc1)N(CC)CC (configuration not stated),0.2
O=C(Cn1nc(Cl)nc1Cl)Nc1ccccc1,i
O=S(=O)(NCC(c1cccnc1)N1CCN(c2ccc(F)cc2)CC1)c1ccc(F)cc1 (configuration not stated),0.4
O=c1c(Cl)c(NCCCO)cnn1-c1nc2ccccc2[nH]1,2.4
CCCC(C)NC(=O)c1cc(Cl)ccc1OC (configuration not stated),0.6

# Taken from above.
# For H5N1 CPE, `Cc1cccc(C(=O)O/N=C2\CCCc3ccccc32)c1` is listed with 0.3
# For H5N1 CPE, `C=CCC(C#Cc1ccc(C)cc1)N(CC)CC` (configuration not stated) is listed with 0.2

# (list continues)
SMILES,H5N1 CPE
N/C(=N\OS(=O)(=O)c1ccc(Br)cc1)c1ccncc1,0.2
COc1ccc(N2CCN(C3CC(=O)NC3=O)CC2)cc1 (configuration not stated),0.4
CC1=CC(C)(C)Nc2ccc(OC(=O)C(C)N3C(=O)c4ccccc4C3=O)cc21 (configuration not stated),i
Cc1cc(C)n(-c2cc(C)c(C)cc2Br)n1,0.2
CCOC(=O)Cc1nnc(NC(=O)CSc2ccccc2)s1,i
O=C(NCCc1ccccn1)C1CCCN(S(=O)(=O)Cc2ccccc2)C1 (configuration not stated),i
O=C(CC(C(=O)O)C1CCCO1)NCc1ccccc1 (configuration not stated),i
Cc1nnc(SC(C)C(=O)Nc2ccc(Cl)cn2)n1Cc1ccccc1 (configuration not stated),2.6
CCOC(=O)Cc1csc(NC(=O)CSc2nnc(-c3ccc(OC)cc3)n2C)n1,i
COC(=O)c1cc(OC)c(OC)cc1NC(=S)Nc1cccc(Cl)c1,i
CC(=O)Nc1ccc(-c2nc3c(C)cccc3[nH]2)cc1,i
O=c1cc(N2CCN(c3ccccc3)CC2)[nH]c(=O)n1Cc1ccc(F)cc1,i
O=C1C2ON(c3ccccc3)C(c3ccccc3F)C2C(=O)N1c1ccccc1 (configuration not stated),0.5
c1ccc2c(c1)[nH]c1nc(SCCN3CCOCC3)nnc12,1.8
N#Cc1nc(-c2ccc(F)cc2)oc1N1CCCC1,0.4
O=S(=O)(c1ccc(-c2nc3ccccc3s2)cc1)N1CCCC1,i
O=C(COC(=O)COc1ccccc1Cl)Nc1ccccc1OC(F)F,i
CCCC(=O)NC(=S)Nc1cccc(NC(=O)c2ccc(Cl)cc2Cl)c1,i
CN1/C(=C\C(=O)COC(=O)Cn2nnc(-c3ccccc3)n2)C(C)(C)c2ccccc21,0.2
Cc1cc(C)c2c(N)c(-c3nc4ccccc4[nH]3)sc2n1,0.5
O=C(NCC1CCCO1)C12CN(Cc3ccccc3)CC1C(c1cccc([N+](=O)[O-])c1)=NO2 (configuration not stated),1.0
CCOc1ccc2c(c1)c1nnc(SCC(=O)N3CCCCC3C)nc1n2C (configuration not stated),4.3
COc1ccccc1C(=O)N1CCC(C(=O)c2ccc(F)cc2)CC1,1.0

# Ordered by length of the SMILES (high to low): 6 of the compounds above
SMILES,H5N1 CPE
COc1ccccc1NC(=O)Cn1nc(-c2ccc(Cl)cc2)c2ccccc2c1=O,0.7
c1ccc(CN(Cc2cccs2)C(c2cccs2)c2nnnn2C2CCCC2)cc1 (configuration not stated),0.2
Cc1cccc(-c2c3c(=O)n(C)c(=O)n(C)c3c3cccnn23)c1,i
COc1ccccc1C(=O)N1CCC(C(=O)c2ccc(F)cc2)CC1,1.0
Cc1cccc(C(=O)O/N=C2\CCCc3ccccc32)c1,0.3
CCc1cc2c(NC(C(=O)O)C(C)C)ncnc2s1 (configuration not stated),i
